# PAFAH1B2 FP inh: PAFAH1B2 enzyme inhibitors, primary screen, biochemical, fluorescence polarization, human; 340,000 compounds, 1.2% hits; recombinant PAFAH1B2, FP-rhodamine activity probe; inhibition, % at 3.39 µM; Platelet-activating factor acetylhydrolase IB subunit alpha2 (Homo sapiens), P68402;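 active = inhibition above the mean of all tested compounds plus 3 SD, cut at about 24% in these data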;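 also: 0% = enzyme with DMSO and 100% = wells lacking PAFAH1B2; many of its hits are not listed in these tables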
# PREPL inh: PREPL enzyme inhibitors, primary screen, biochemical, fluorescence polarization; recombinant PREPL, fluorescence polarization activity-based probe; inhibition, % at 5.96 µM; 320,000 compounds, 0.68% hits; in the data active = inhibition above about 43%;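 also: 0% = enzyme with DMSO and 100% = wells lacking enzyme; many of its hits are not listed in these tables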
# ZTA DNA inh: counter-screen for EBNA-1 inhibitors: inhibitors of Epstein-Barr virus ZTA; ZTA-DNA binding, fluorescence polarization; inhibition, % at 11 µM; 320,000 compounds, 0.15% hits; AID 2234; in the data active = inhibition above about 33%
# Target sequence (P03206 whole entry, looked up): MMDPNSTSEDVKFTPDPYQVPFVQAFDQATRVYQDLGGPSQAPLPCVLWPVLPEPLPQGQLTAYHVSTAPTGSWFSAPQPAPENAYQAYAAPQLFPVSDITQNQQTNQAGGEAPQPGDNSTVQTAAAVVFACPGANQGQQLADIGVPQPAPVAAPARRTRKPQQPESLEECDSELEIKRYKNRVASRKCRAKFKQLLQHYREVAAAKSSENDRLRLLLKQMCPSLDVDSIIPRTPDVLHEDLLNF
# LYPLA1 inh: LYPLA1 inhibitors, primary screen, counter-screen for PME1 inhibitor project, biochemical, fluorescence polarization, FP-Rh probe ABPP. Acyl-protein thioesterase 1 (Homo sapiens), O75608. recombinant LYPLA1. inhibition, % at 5.9 µM. 320,000 compounds, 0.16% hits. AID 2174, 2009;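 active = inhibition above the mean of all tested compounds plus 3 SD, set per campaign, cut at about 14% in these data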;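 also: inhibitors block serine hydrolase probe labeling of LYPLA1 so polarization falls; 0% = enzyme with DMSO and 100% = wells lacking LYPLA1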
# PAFAH1B3 FP inh: PAFAH1B3 enzyme inhibitors, primary screen, biochemical, fluorescence polarization, human. recombinant PAFAH1B3, FP-rhodamine probe. inhibition, % at 3.39 µM. 340,000 compounds, 0.28% hits. AID 492972, 2010;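 active = inhibition above the screen-wide average of all tested compounds plus 3 SD, cut at about 25% in these data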;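 also: 0% = enzyme with DMSO only and 100% = wells lacking PAFAH1B3 protein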
# EBNA-1 inhibitor: EBNA-1 DNA-binding inhibitors, primary screen, biochemical, fluorescence polarization. inhibition, % at 14.8 µM. 300,000 compounds, 0.34% hits; in the data active = inhibition above about 28%
# LYPLA2 inh: LYPLA2 inhibitors, primary screen, counter-screen for PME1 inhibitor project, biochemical, fluorescence polarization, FP-Rh probe ABPP. recombinant LYPLA2. inhibition, % at 5.9 µM. 320,000 compounds, 0.38% hits. AID 2177, 2009. Acyl-protein thioesterase 2 (Homo sapiens), O95372;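 active = inhibition above the screen-wide mean plus 3 SD, limit set per campaign, cut at about 26% in these data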;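 also: 0% = LYPLA2 with DMSO and 100% = wells lacking LYPLA2 enzyme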
# Target sequence (O95372 whole entry, looked up): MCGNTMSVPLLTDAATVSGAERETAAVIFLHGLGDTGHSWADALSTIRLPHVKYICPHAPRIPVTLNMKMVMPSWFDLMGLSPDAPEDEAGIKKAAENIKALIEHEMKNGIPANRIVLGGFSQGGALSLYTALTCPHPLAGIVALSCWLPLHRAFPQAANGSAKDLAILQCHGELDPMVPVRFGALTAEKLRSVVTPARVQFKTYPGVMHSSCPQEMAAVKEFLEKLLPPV
# PAFAH2 FP inh: PAFAH2 enzyme inhibitors, primary screen, biochemical, fluorescence polarization, human | recombinant PAFAH2, FP-rhodamine activity probe | inhibition, % at 3.39 µM | 340,000 compounds, 0.99% hits | AID 492956, 2010;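 active = inhibition above the mean over all tested compounds plus 3 SD, cut at about 30% in these data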;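 also: inhibitors block probe labeling of enzyme so polarization drops; 0% = enzyme with DMSO and 100% = wells lacking PAFAH2 protein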
# Numbers without * were called inactive; . = not tested or not shown. An excerpt, so the mix of outcomes need not match the whole.
structure | PAFAH1B2 FP inh | PREPL inh | ZTA DNA inh | LYPLA1 inh | PAFAH1B3 FP inh | EBNA-1 inhibitor | LYPLA2 inh | PAFAH2 FP inh
Cc1ccc(N(NC(=O)C(C)(C)O)C(=O)c2ccccc2)cc1C | -4.8 | 8.0 | -5.7 | 0.5 | 2.6 | -3.1 | 3.3 | 3.4
CN1CCN(c2ccc(S(=O)(=O)Nc3ccccc3)cc2[N+](=O)[O-])CC1 | -2.7 | 9.9 | -0.8 | -4.5 | 7.3 | 3.4 | 0.0 | 4.2
Cc1noc(C)c1CSc1nc2[nH]ncc2c(=O)n1-c1ccccc1 | 5.2 | 13.6 | 3.6 | 1.6 | -0.6 | -2.1 | -1.2 | -4.1
O=C(c1ccc2n[nH]nc2c1)N1CCN(c2ccc(C(F)(F)F)cn2)CC1 | 3.6 | 8.2 | 12.8 | 66.5* | -3.8 | . | 61.9* | 7.4
COc1ccc(OC)c(NC(=O)CN(C)CCOc2ccc(Br)cc2)c1 | 0.6 | 31.1 | -18.1 | 3.1 | 1.0 | -19.5 | 0.9 | 6.0
COc1cc2c(cc1OC)-c1cc(OCCN3CCOCC3)nc(=O)n1CC2 | 1.2 | 7.3 | 4.8 | -3.3 | 9.0 | 3.6 | -5.3 | 53.6*
CCOc1ccc(NS(=O)(=O)c2ccc(OCC(=O)NCCCOC)cc2)cc1 | 4.4 | 8.9 | -2.1 | 0.1 | 7.1 | 4.8 | 1.0 | -2.3
O=C(COC(=O)CNS(=O)(=O)c1ccc(F)c(F)c1F)NCCc1ccccc1 | 2.6 | 7.2 | 9.2 | -1.8 | -1.6 | 2.6 | -7.1 | 4.9
O=C(c1cccc(S(=O)(=O)Nc2ccc(F)cc2)c1)N1CCC1 | 4.5 | 4.7 | 5.7 | -0.2 | 0.7 | . | -1.3 | 4.9

# Another view of 2 compounds above:
Compound: O=C(c1ccc2n[nH]nc2c1)N1CCN(c2ccc(C(F)(F)F)cn2)CC1
  PAFAH1B2 FP inh: 3.6
  PREPL inh: 8.2
  ZTA DNA inh: 12.8
  LYPLA1 inh: 66.5*
  PAFAH1B3 FP inh: -3.8
  EBNA-1 inhibitor: .
  LYPLA2 inh: 61.9*
  PAFAH2 FP inh: 7.4

Compound: COc1ccc(OC)c(NC(=O)CN(C)CCOc2ccc(Br)cc2)c1
  PAFAH1B2 FP inh: 0.6
  PREPL inh: 31.1
  ZTA DNA inh: -18.1
  LYPLA1 inh: 3.1
  PAFAH1B3 FP inh: 1.0
  EBNA-1 inhibitor: -19.5
  LYPLA2 inh: 0.9
  PAFAH2 FP inh: 6.0

# In the list so far, five contain sulfur:
structure | PAFAH1B2 FP inh | PREPL inh | ZTA DNA inh | LYPLA1 inh | PAFAH1B3 FP inh | EBNA-1 inhibitor | LYPLA2 inh | PAFAH2 FP inh
CN1CCN(c2ccc(S(=O)(=O)Nc3ccccc3)cc2[N+](=O)[O-])CC1 | -2.7 | 9.9 | -0.8 | -4.5 | 7.3 | 3.4 | 0.0 | 4.2
Cc1noc(C)c1CSc1nc2[nH]ncc2c(=O)n1-c1ccccc1 | 5.2 | 13.6 | 3.6 | 1.6 | -0.6 | -2.1 | -1.2 | -4.1
CCOc1ccc(NS(=O)(=O)c2ccc(OCC(=O)NCCCOC)cc2)cc1 | 4.4 | 8.9 | -2.1 | 0.1 | 7.1 | 4.8 | 1.0 | -2.3
O=C(COC(=O)CNS(=O)(=O)c1ccc(F)c(F)c1F)NCCc1ccccc1 | 2.6 | 7.2 | 9.2 | -1.8 | -1.6 | 2.6 | -7.1 | 4.9
O=C(c1cccc(S(=O)(=O)Nc2ccc(F)cc2)c1)N1CCC1 | 4.5 | 4.7 | 5.7 | -0.2 | 0.7 | . | -1.3 | 4.9
